# Assay outcomes from PubChem BioAssay.
# MITF inhib: MITF inhibition. TRPM1 promoter luciferase, luminescence, 24 h. inhibition, % (test concentration not listed). 0.28% of 37,000 active. AID 2240;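 active = most replicates at 85% or more, or half of them and the mean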;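 note: human melanocyte line stably carrying TRPM1 promoter luciferase reporter; 0% = vehicle wells and 100% = a positive control; the first replicate is given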
# * marks the source's active call; other numbers are inactive results. An excerpt. The share of hits here may be higher or lower than overall.
SMILES,MITF inhib
Cc1sc2ncn(CC(=O)Nc3ccc(F)cc3)c(=O)c2c1C,2
O=C(NCCCn1ccnc1)c1cc(-c2cccnc2)nc2ccc(Cl)cc12,0
O=C(CSc1ncn[nH]1)NCc1ccccc1,-7
Cc1cc(Nc2ccccc2NC(=O)c2ccc([N+](=O)[O-])cc2)n(-c2ccccc2)n1,19
CN(c1cccc(NC(=O)c2ccc(NS(=O)(=O)c3ccccc3)cc2)c1)S(C)(=O)=O,0
COc1ccc(OC(C)C(=O)Nc2ccccc2C#N)cc1 (stereo not given),-25
O=C(CSc1nnnn1-c1ccccc1)Nc1ccc2c(c1)OCCO2,-33
Nc1cc(N)nc(SCC(=O)Nc2ccc(Br)cc2Cl)n1,-45
Cc1nn(C(C)C(=O)Nc2sc3c(c2C#N)CCCC3)c(C)c1[N+](=O)[O-] (stereo not given),1
Cc1ccc(C)c(NC(=O)CSc2ncnc3sc4c(c23)CCC4)c1,16
Cc1cc(NC(=O)c2cnn3c(C(F)(F)F)cc(-c4cccs4)nc23)n(-c2ccccc2)n1,21
COc1ccc(OC)c(NC(=O)Cc2ccc(OC)c(OC)c2)c1,3
COc1ccc(C(=O)CSc2nnc(-c3ccc(Cl)cc3)n2-c2ccc(OC)cc2)cc1,1
CCn1c(SCC(=O)Nc2ccccc2Br)nnc1-c1ccccc1O,-8
COc1ccc(NC(=O)C(C)Oc2ccccc2)c([N+](=O)[O-])c1 (stereo not given),-84
CN1CCN(C(=O)CN(c2ccc(I)cc2)S(=O)(=O)c2ccccc2)CC1,-15
COC(=O)c1cc(NC(=O)CC2SCCNC2=O)cc(C(=O)OC)c1 (stereo not given),-4
Cc1nn(CC(O)COc2ccc3c(c2)CCC3)c(C)c1C (stereo not given),-22
COc1ccc(NC(=O)CSc2nnc(N)n2-c2ccccc2)cc1,3
Cc1ccc(S(=O)(=O)CCSc2cccc(C(=O)Nc3ccccc3)c2)cc1,4
Cc1ccnc(NC(c2ccc([N+](=O)[O-])cc2)c2ccc3ccc(C)nc3c2O)c1 (stereo not given),63
COc1ccc(-c2noc(CSc3nc4sc(C)c(C)c4c(=O)n3-c3ccccc3)n2)cc1OC,2
CC(C)(C)c1ccc(OCC(=O)NCCN2CCOCC2)cc1,-2
N#CCCN(CCC#N)C(=O)c1cc(-c2ccccc2)nc2ccccc12,-6
CN(C)CCn1nnc2c(=O)oc3ccccc3c21,-5
CS(=O)(=O)N(CC(=O)Nc1cccnc1)c1ccc2c(c1)OCCO2,-8
CC(=O)c1ccc(NC(=O)CSc2nnc(C34CC5CC(CC(C5)C3)C4)n2C)cc1,-55
COC(=O)c1ccc(-n2c(CCC(=O)O)ccc2-c2ccc(OC)cc2)cc1,3
Cc1nn(CC(=O)Nc2sc3c(c2C#N)CCCC3)c(C)c1[N+](=O)[O-],0
COc1ccc(OC)c(C(=O)CCC(=O)Nc2ccc(Cl)cc2)c1,14

# An excerpt of these results, bar-delimited.
compound | MITF inhib
COc1ccc(-c2noc(CSc3nc4sc(C)c(C)c4c(=O)n3-c3ccccc3)n2)cc1OC | 2
CC(C)(C)c1ccc(OCC(=O)NCCN2CCOCC2)cc1 | -2
Cc1ccnc(NC(c2ccc([N+](=O)[O-])cc2)c2ccc3ccc(C)nc3c2O)c1 (stereo not given) | 63

# Going on with the list:
SMILES,MITF inhib
Cc1cccnc1NC(=O)C(C)Oc1ccccc1 (stereo not given),-4
Cc1ccc(S(=O)(=O)NC(C)C(=O)Nc2cccc([N+](=O)[O-])c2)cc1 (stereo not given),6
Cc1sc(NC(=O)c2cc(-c3cccnc3)nc3ccc(Cl)cc23)c(C(N)=O)c1-c1ccccc1,11
CCOc1ccc(C(C)=O)cc1CSc1nc(C)cc(=O)[nH]1,-8
COc1ccc(C(C)=O)cc1CSc1nc2cc(C)c(C)cc2[nH]1,-14
COc1ccc2nc(Nc3nc(CSc4ccc(Cl)cc4)cc(=O)[nH]3)nc(C)c2c1,-3
O=C(CNC(=O)c1cn(-c2ccccc2)nc1-c1ccccc1)c1ccccc1,-75
CCOc1ccc(Oc2nc(NCC(C)C)nc(N(C)C)n2)nn1,-2
CC(CNC(=O)c1ccco1)NC(=O)c1ccco1 (stereo not given),-14
CCOC(=O)CC(c1ccccc1)S(=O)(=O)O (stereo not given),-5

# Fetched one by one from the list above (four):
SMILES,MITF inhib
COc1ccc2nc(Nc3nc(CSc4ccc(Cl)cc4)cc(=O)[nH]3)nc(C)c2c1,-3
COc1ccc(C(C)=O)cc1CSc1nc2cc(C)c(C)cc2[nH]1,-14
CC(CNC(=O)c1ccco1)NC(=O)c1ccco1 (stereo not given),-14
Cc1cc(NC(=O)c2cnn3c(C(F)(F)F)cc(-c4cccs4)nc23)n(-c2ccccc2)n1,21

# Next results.
SMILES,MITF inhib
COc1ccccc1N(CC(=O)O)S(=O)(=O)c1ccccc1,-11
O=C(O)CCCC(=O)Nc1ccc(F)cc1,-15
COc1ccc(S(=O)(=O)Nc2cccc(N(C)S(C)(=O)=O)c2)cc1OC,21
OC(CNCc1ccccc1)Cn1c2ccccc2c2ccccc21 (stereo not given),-2
O=C(CCc1nc(-c2ccccc2F)no1)Nc1ccccc1[N+](=O)[O-],-21
Cc1c(Cl)cccc1NC(=O)CN1CCN(CCO)CC1,-17
O=c1[nH]c(=O)n(Cc2ccco2)c2c1C(C(F)(F)F)(C(F)(F)F)N=C(CCc1ccccc1)N2,12
COC(=O)c1c(NC(=S)Nc2ccc(S(=O)(=O)NC34CC5CC(CC(C5)C3)C4)cc2)sc2c1CCC2,36
COC(=O)c1ccc(NC(=O)CCC(=O)c2ccc(C)cc2C)cc1,0
Cc1cc2ccccc2n2c(SCC(N)=O)nnc12,-10
CCc1ccccc1NC(=O)CSc1nnc(-c2cccc(OC)c2)n1C,-1
COc1cc(NC(=O)C(=O)NCCN2CCNCC2)c(OC)cc1Cl,-17
CSc1ccccc1NC(=O)CN(c1ccc(I)cc1)S(C)(=O)=O,11
COc1ccc2[nH]cc(CCNC(=O)Nc3ccc(Cl)c(Cl)c3)c2c1,5
COc1ccccc1NC(=O)CSc1nc2cc3ccccc3cc2[nH]1,22
O=C1CC(c2nc3ccccc3n2CCCOc2ccccc2)CN1c1ccccc1 (stereo not given),-9
Cc1cc(=O)n2[nH]c(NCc3cccc([N+](=O)[O-])c3)nc2n1,-18
O=C1c2ccccc2C(=O)N1CCCc1nc(-c2ccncc2)no1,-7
CCn1c(SCC(=O)c2ccc(F)cc2)nnc1-c1cccnc1,-14
O=C(Cn1c(C(F)(F)F)nc2ccccc21)NCc1ccco1,-2
O=C(CSc1nnc(-c2ccc(Cl)cc2Cl)o1)Nc1ccc([N+](=O)[O-])cc1,8
N#Cc1c(NC(=O)COc2ccc3c(-c4ccccc4)cc(=O)oc3c2)sc2c1CCC2,12
CC(C)CNc1nc(SCC(N)=O)nc(N2CCOCC2)n1,-5
O=c1cc(-c2ccccc2)nc(SCc2nc3ccccc3[nH]2)[nH]1,20
N#Cc1c(NC(=O)CCn2cnc3ccccc3c2=O)oc(-c2ccccc2)c1-c1ccccc1,-1
Cc1cc(C(F)F)n2nc(C(=O)Nc3cccc(S(=O)(=O)N4CCOCC4)c3)nc2n1,-2
CCn1c(SCC(=O)Nc2ccc(F)cc2)nnc1-c1cccs1,3
CC1(C)Cc2c(sc3nc(SCC(=O)c4ccccc4)nc(N)c23)CS1,-21
Cc1ccnc(NS(=O)(=O)c2ccc(NC(=O)c3csc4c3CCCC4)cc2)n1,-1
Cc1c(NC(=O)CS(=O)(=O)c2ccccc2)c(=O)n(-c2ccccc2)n1C,-14
Cc1ccc(NC(=O)COc2ccccc2)c(NC(=O)C2CC2)c1,-37
Cc1cc2ncn(CC(O)COC3CCCCC3)c2cc1C (stereo not given),1
COC(=O)c1c(-c2ccccc2)csc1NC(=O)c1cc(-c2cccnc2)nc2ccccc12,61
OC(CN1CCN(C/C=C/c2ccccc2)CC1)Cn1c2ccccc2c2ccccc21 (stereo not given),2
O=C(CSc1nnc(-c2ccco2)n1-c1ccccc1)Nc1ccc(F)cc1,0
COc1ccccc1CNc1nc2nc(C)cc(C)n2n1,6
Cc1cc(CNC(=O)c2cc(-c3cccnc3)nc3ccc(Cl)cc23)nn1C,-26
COc1ccc(C(=O)NCC(=O)Nc2ccccc2C(F)(F)F)cc1OC,13
O=C(NCc1ccccn1)Nc1ccccc1Cl,-105
COc1ccc(NC(=O)COc2cc(C)c(Br)c(C)c2)c([N+](=O)[O-])c1,-52
COc1ccc(Cl)cc1N(CC(=O)Nc1cc(Cl)ccc1C)S(C)(=O)=O,-5
CCOc1cc(S(=O)(=O)NCc2ccco2)ccc1F,3
COc1ccc(NC(=O)CSc2nc(C34CC5CC(CC(C5)C3)C4)ccc2C#N)cc1,1
O=C(CSc1nnnn1-c1ccccc1)Nc1ccc(Br)c(Cl)c1,-7
Cc1sc2nc(SCC(=O)Nc3ccc4c(c3)OCCO4)n(-c3ccccc3)c(=O)c2c1C,-1
CCC(=O)N1CCN(c2ccc(Cl)cc2NC(=O)COc2ccc(Br)cc2)CC1,-11
Cc1nn(S(=O)(=O)N(C)C)c(C)c1CN1C(=O)c2ccccc2C1=O,-1
O=C(O)CCC(=O)Nc1ccc(C(=O)O)cc1,13
O=C(COc1ccc([N+](=O)[O-])cc1)Nc1ccc(-c2nc3ccccc3o2)cc1,-29
O=C(Cc1cc(C(=O)O)c2ccccc2n1)Nc1ccccc1,46

# Additional entries.
SMILES,MITF inhib
O=C(NCc1ccccn1)c1cc(-n2cnnc2)ccc1Cl,-8
COc1ccccc1NC(=O)c1ccc(CSc2nc3ccccc3o2)cc1,8
CCc1c(C)nc(Nc2nc(C)c3ccc(OC)cc3n2)[nH]c1=O,-49
Cc1nn(CC(=O)Nc2cc(F)ccc2F)c(C)c1[N+](=O)[O-],2
O=C(CN(c1ccc(F)cc1)S(=O)(=O)c1ccc2c(c1)OCCO2)N1CCc2ccccc2C1,5
O=C(Nc1ccccc1)c1ccc(S(=O)(=O)NCc2ccncc2)cc1,33
Cc1c(NC(=O)CSc2nnnn2-c2ccc(F)cc2)c(=O)n(-c2ccccc2)n1C,-11
CS(=O)(=O)N(CC(=O)Nc1ccc(Br)cc1)c1cc(Cl)c(Cl)cc1Cl,-7
O=C(CN1C(=O)c2cccc3cccc1c23)NCc1ccco1,-22
O=C(NCCO)C(=O)NCc1ccco1,-2
CC(=O)c1ccc(NC(=O)CSc2nc(-c3ccccc3)cc(=O)[nH]2)cc1,-27
O=C(CSc1nc(-c2ccccc2)cc(=O)[nH]1)NCC1CCCO1 (stereo not given),-6
Cc1ccc(S(=O)(=O)NCCNc2ccccc2[N+](=O)[O-])cc1,-7
COc1cccc(N(CC(=O)Nc2c(C)cc(C)cc2C)S(C)(=O)=O)c1,3
Cc1ccc(C)c(NS(=O)(=O)c2cc(C(=O)Nc3cccc(N(C)S(C)(=O)=O)c3)ccc2C)c1,15
Cc1cc(N(CC(=O)Nc2ccc(Oc3ccccc3)cc2)S(C)(=O)=O)ccc1Br,19
COc1ccc(OC)c(NC(=O)CNC(=O)c2cccs2)c1,8
COC(=O)c1ccccc1NC(=O)Cn1nnc(-c2ccc(OC)cc2)n1,17
O=C(Cn1cnc([N+](=O)[O-])c1)Nc1ccc(Cl)cc1Cl,26
O=C(CN1C(=O)c2cccc3cccc(c23)C1=O)NCC(O)c1ccccc1 (stereo not given),-1

# Sorted by number of heavy atoms (lowest first): part of the list above.
SMILES,MITF inhib
COc1ccc(OC)c(NC(=O)CNC(=O)c2cccs2)c1,8
COc1cccc(N(CC(=O)Nc2c(C)cc(C)cc2C)S(C)(=O)=O)c1,3
CC(=O)c1ccc(NC(=O)CSc2nc(-c3ccccc3)cc(=O)[nH]2)cc1,-27
O=C(CN1C(=O)c2cccc3cccc(c23)C1=O)NCC(O)c1ccccc1 (stereo not given),-1
Cc1cc(N(CC(=O)Nc2ccc(Oc3ccccc3)cc2)S(C)(=O)=O)ccc1Br,19

# Next part
SMILES,MITF inhib
CN(C)S(=O)(=O)N(CC(=O)Nc1ccccc1C(F)(F)F)c1ccccc1,0
O=C(COc1ccc(Cl)cc1)Nc1cccnc1,-18
Cc1noc(C)c1CSc1nc2[nH]ncc2c(=O)n1-c1ccccc1,15
COc1cc([N+](=O)[O-])ccc1NC(=O)CN(C)S(=O)(=O)c1ccc2ccccc2c1,27
Cn1c(SCC(=O)c2cc(C(C)(C)C)c(O)c(C(C)(C)C)c2)nnc1-c1ccncc1,-10
O=C(CCCn1cc([N+](=O)[O-])cn1)Nc1cccc(C(F)(F)F)c1,13
CC1CCc2c(sc(NC(=O)Cn3nc(C(F)(F)F)c4c3CCCCC4)c2C#N)C1 (stereo not given),7
CCC(=O)Nc1cccc(NC(=O)COc2cc(Cl)c(Cl)cc2Cl)c1,40
O=C(CN1C(=O)c2ccccc2S1(=O)=O)Nc1ccc2c(c1)OCCO2,51
O=C(CSc1nc(Nc2ccccc2)nc(N2CCOCC2)n1)N1CCCC1,-57
COc1ccccc1NC(=O)CSc1ncnc2scc(-c3ccccc3)c12,61
N#Cc1c(C(F)(F)F)cc(-c2ccccc2)nc1SCC(=O)Nc1ccccc1C(F)(F)F,6
C=CCn1c(SCc2csc(C)n2)nc2sc(C)c(C)c2c1=O,-17
COc1ccc(NC(=O)CSc2nc(O)cc(=O)n2-c2ccc(C)cc2)cc1,1
CNc1nc(Oc2ccc(=O)[nH]n2)nc(N2CCOCC2)n1,-9
CC(=O)Nc1ccc(S(=O)(=O)NC2(C(F)(F)F)C(=O)N(Cc3ccc(F)cc3)C3=C2C(=O)CC(C)(C)C3)cc1 (stereo not given),-8
COc1ccc(Cl)cc1NC(=O)CN1C(=O)c2ccccc2S1(=O)=O,-8
O=C(CN1C(=O)c2ccccc2S1(=O)=O)Nc1ccccc1Br,-36
O=C(NCCCN1CCOCC1)c1cc2cc([N+](=O)[O-])ccc2oc1=O,-34
CC(C)(C)c1cc(CNCCS(=O)(=O)O)c(O)c(C(C)(C)C)c1,-1
Cc1ccc(CC(c2nc3ccccc3[nH]2)C(C)c2nc3ccccc3[nH]2)cc1 (stereo not given),63
COc1ccc(OC)c(N(CC(=O)Nc2c(C)cc(C)cc2C)S(C)(=O)=O)c1,-8
CCOC(=O)c1c(C2COc3ccccc3O2)csc1NC(=S)Nc1ccccc1 (stereo not given),6
O=C(O)CCC(=O)Nc1ccc2c(c1)oc1ccccc12,-15
